# PABP polyA inh: PABP poly(A) RNA binding inhibitors, primary screen, biochemical, fluorescence polarization, uHTS. inhibition, % at 35 µM. actives 1% (n = 290,000). AID 2014, 2009;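 active = 50% or more with normal probe brightness, or confirmed in later tests; inconclusive = above 50% with abnormal brightness, or retests that disagree; inactive = below 50% or failed in later tests; about a fifth of its hits are not listed in these tables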;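 also: calls also rest on retests at 20 µM and on dose response follow-up; controls were probe without protein and protein plus probe with vehicle; some compounds called inactive have numbers as strong as hits; many hits fall short of the cut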
# Target sequence (P11940 whole entry, looked up): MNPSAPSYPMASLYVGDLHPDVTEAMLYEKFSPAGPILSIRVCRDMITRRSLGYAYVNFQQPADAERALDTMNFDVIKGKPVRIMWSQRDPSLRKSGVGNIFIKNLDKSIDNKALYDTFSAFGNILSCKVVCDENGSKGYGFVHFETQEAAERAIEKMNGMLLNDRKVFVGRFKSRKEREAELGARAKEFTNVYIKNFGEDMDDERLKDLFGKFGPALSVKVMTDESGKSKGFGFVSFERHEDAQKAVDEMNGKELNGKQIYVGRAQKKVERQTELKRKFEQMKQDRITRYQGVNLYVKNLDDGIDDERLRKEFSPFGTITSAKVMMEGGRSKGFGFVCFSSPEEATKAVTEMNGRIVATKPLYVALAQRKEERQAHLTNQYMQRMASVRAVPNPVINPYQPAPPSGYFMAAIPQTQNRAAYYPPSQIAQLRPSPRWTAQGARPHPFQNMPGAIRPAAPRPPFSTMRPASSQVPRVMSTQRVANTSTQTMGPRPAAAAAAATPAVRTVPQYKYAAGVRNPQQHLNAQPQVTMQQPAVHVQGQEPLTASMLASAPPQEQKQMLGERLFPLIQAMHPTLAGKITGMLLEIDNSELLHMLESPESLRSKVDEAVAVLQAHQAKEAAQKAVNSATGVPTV
# CSC inhib: cancer stem cell viability inhibitors, primary screen, luminescence | cancer stem cell-like cells viability | inhibition, % at 7.5 µM | actives 1.1% (n = 300,000) | AID 2717, 2010;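 active = mean at 75% or more and at least half the replicates too; inconclusive = mean and replicates disagree; tested in HMLE shEcad cells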;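 also: 0% = median of negative and 100% = median of positive control wells; the first replicate is given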
# eIF4H inh: human eIF4H binding inhibitors, primary screen, translation initiation inhibitor project, biochemical, uHTS, fluorescence polarization; actives 0.94% (n = 290,000); inhibition, % at 35 µM; eIF4H fluorescence polarization binding assay; AID 2012, 2009;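 active = 50% or more with normal probe brightness, or confirmed in later tests; inconclusive = above 50% with abnormal brightness, or retests that disagree; inactive = below 50% or failed in later tests; about a fifth of its hits are not listed in these tables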;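 also: calls also rest on retests at 20 µM and on dose response follow-up; 0% = protein and probe with vehicle and 100% = probe without protein; strong numbers were not always called active; many hits fall short of the cut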
# MT1-MMP act inh: blockers of MT1-MMP proenzyme processing, primary screen, HT1080 RFP-PRO-GFP cells, GFP/RFP fluorescence | GFP/RFP ratio change, % at 20 µM | Matrix metalloproteinase-14 (Homo sapiens), P50281 | AID 651647, 2012 | GFP/RFP ratio fluorescence, overnight; percent of plate control window, DMSO zero | actives 0.061% (n = 360,000);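 active = GFP/RFP ratio change of at least 30% with cell ATP level not reduced by more than half and red fluorescence within 50% of control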; also: strong numbers were not always called active
#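 Material – HT1080 RFP-PRO-GFP cells · Control set – DMSO wells and RFP-L50D-GFP cells · Incubation – overnight cell settling, then overnight compound exposure, 37 °C, 5% CO2 · Compound dosing – single-point 20 µM compound, 1% DMSO · Read-out – GFP/RFP fluorescence ratio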
# Rce1 inh: yeast Rce1p protease inhibitors, primary screen, biochemical, fluorescence, cell-free homogeneous; CAAX prenyl protease 2 (Saccharomyces cerevisiae (strain ATCC 204508 / S288c)), Q03530; yeast membranes, quenched prenylated peptide cleavage fluorescence; calls only; actives 0.27% (n = 290,000);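 active = fall in fluorescence gain of 50% or more versus controls, with final raw signal at or below 3038400; inconclusive = same 50% fall but final raw signal above 3038400; inactive = fall in fluorescence gain under 50%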;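 also: plate controls were neutral control wells for no effect and wells lacking membranes for full effect; tested at 10 µM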
# Target sequence (Q03530 whole entry, looked up): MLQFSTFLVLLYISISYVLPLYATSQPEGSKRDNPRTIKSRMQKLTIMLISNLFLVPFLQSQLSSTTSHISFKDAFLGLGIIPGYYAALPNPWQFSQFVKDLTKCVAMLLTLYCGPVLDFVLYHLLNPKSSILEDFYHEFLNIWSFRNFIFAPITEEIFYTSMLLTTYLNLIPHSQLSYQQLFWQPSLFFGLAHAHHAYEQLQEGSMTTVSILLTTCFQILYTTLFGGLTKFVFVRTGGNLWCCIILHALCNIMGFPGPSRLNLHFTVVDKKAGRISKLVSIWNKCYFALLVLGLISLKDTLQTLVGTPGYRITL
# HIV Env fusion: inhibitors of HIV-1 Env-driven cell-cell fusion, primary screen, HeLa-JRFL effector, CEM21 target cells, luciferase. inhibition, % at 12.3 µM. actives 1.1% (n = 360,000);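 active = mean replicate inhibition score of at least 50 and every replicate individually at or above 50; inconclusive = only one of the two criteria met; inactive = mean below 50 and not all replicates reaching 50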;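 also: 0% = plate neutral controls and 100% = maraviroc near 300 nM; one replicate is shown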
# UUG fidelity: modulators of yeast start codon fidelity, primary screen, whole organism, S. cerevisiae, single point, plate reader; S. cerevisiae UUG-firefly luciferase reporter, luminescence/redox ratio; activity score, % at 18.7 µM; actives 0.13% (n = 350,000);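 active = replicate mean at a twofold rise or more, about +100% in these data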;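 also: firefly luciferase made from a UUG start codon reports start codon fidelity; reporter light over untreated wells divided by growth signal over untreated wells; some hits fall short of that in this replicate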
# MT1-MMP act inh RFP: second read-out of MT1-MMP act inh, no call of its own (marks repeat the call); RFP signal change, %; measured here: RFP expression control read;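 0 = vehicle wells; hits needed this value within 50% of zero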
# Starred values were filed as active, the others as inactive; i = inactive; ? = inconclusive; . = no result given. An unsorted share of the library (roughly 2.9% active in at least one column).
SMILES	PABP polyA inh	CSC inhib	eIF4H inh	MT1-MMP act inh	MT1-MMP act inh RFP	Rce1 inh	HIV Env fusion	UUG fidelity
COc1cc(C)ccc1OCCOc1cc(C)ccc1Cl	-2	12	2	1	-1	i	.	-4
O=C(COc1coc(CN2CCc3ccccc3C2)cc1=O)N1CCOCC1	.	-15	.	3	9	i	-1	-21
CC1CCCN(C(=O)c2ccc3nc[nH]c3c2)C1 (stereo not given)	14	-13	2	2	5	i	-23	-22
Cn1cccc1C(=O)NC(=O)CSc1cccc[n+]1[O-]	-2	-21	-5	-1	4	i	-7	-10
COc1ccc(-c2c(C#Cc3ccsc3)c3cc(-c4ccc5c(c4)OCO5)ccc3n2C)cc1	.	-6	.	-5	2	.	-7	-11
COc1cc(C(=O)NNC(=O)Cc2cccs2)cc(OC)c1OC	.	7	.	2	5	.	.	-10
CC(=O)Oc1cccc(NC(=O)c2ccc3c(c2)C(=O)N(CC(C)C)C3=O)c1	-2	-4	-17	4	-4	i	-11	-25
CCOC(=O)CN1N=C(c2ccc(C)cc2)CCC1=O	-1	-3	-2	2	0	i	-6	-18
O=C1CC(c2ccccc2)CC2=C1CN(C1CCCCC1)CN2 (stereo not given)	1	3	0	0	0	.	-45	-13
CCN(CC)CCN(C(=O)CN1C(=O)CCC1=O)c1nc2cc3c(cc2s1)OCO3	8	-8	-1	4	2	i	-4	.
CCn1nnnc1SCC(=O)Nc1ccc(N(C)C)cc1	1	.	-8	-1	1	i	-7	15
CC(C)N1CCC(=O)NC1=O	.	.	.	-1	4	.	14	-19
COc1ccccc1OCCNC(=O)CNC(=O)c1ccc(C(C)(C)C)cc1	.	.	.	8	-2	.	1	-12
O=C(CN1CCN(S(=O)(=O)c2ccccc2)CC1)Nc1ccc(Cl)c(Cl)c1	-18	9	-17	4	-2	i	9	12
COCc1cc(=O)[nH]c(SCC(=O)c2ccccc2)n1	2	0	-8	-1	1	i	5	.
O=C(Nc1nc2ccccc2[nH]1)c1ccc([N+](=O)[O-])cc1	-6	-15	1	-2	-6	i	-54	.
Cn1c(N2CCCC2)nc2c1c(=O)n(Cc1ccc(Cl)cc1)c(=O)n2C	20	-14	4	12	-4	i	27	-2
COc1ccc(F)cc1-c1cc(C(=O)Nc2ccc(NC(C)=O)cc2)[nH]n1	.	.	.	3	2	.	-10	-18
COc1cccc(CC(=O)OCC(=O)NC2CCCCCC2)c1	10	-8	-3	-2	0	i	17	-13
O=C(O)C1CCCCC1C(=O)NCc1ccc(Cl)c(Cl)c1 (stereo not given)	-7	-4	-6	-1	0	i	-16	.
O=C(OC(C(=O)NCc1ccco1)c1ccc(Cl)cc1)c1cccs1 (stereo not given)	6	-11	6	0	3	i	9	-2
Cc1nn(C)c(Cl)c1CN1CCCC(C(=O)Nc2ccc(-c3cscn3)cc2)C1 (stereo not given)	-4	-4	-6	2	-1	i	15	-7
COc1cccc(NC(=O)CN(C)C(=O)CCCc2nc3ccccc3c(=O)[nH]2)c1	.	1	.	0	0	.	.	-10
O=C(NCc1ccco1)c1ccc2c(c1)N(Cc1ccccc1)CCS2	2	129*	-4	-4	-16	i	-8	.
COc1ccc(NC(=O)c2sc3nc(N4CCOCC4)c4c(c3c2N)CC(C(C)C)OC4)c(OC)c1 (stereo not given)	-9	22	-2	-4	-1	i	-4	-7
COc1ccc(C(OCC(O)CNC(C)c2ccccc2)c2ccc(OC)cc2)cc1 (stereo not given)	-6	9	-11	3	-1	.	5	-15
O=C(CN1CCCC1)NC1C2CC3CC(C2)CC1C3 (stereo not given)	-2	-5	-2	-1	-1	i	-23	-13
COc1ccc(NC(=O)N2C[C@H]3CON(C)[C@H]3C[C@H]2c2ccc(N3CCCCC3)cc2)cc1	.	.	.	3	3	.	-15	25
CC(C)Cc1[nH]c(=O)c(C#N)c2c1CCCC2	2	-6	-12	-8	0	i	.	13
COc1ccc(CNC(=O)C(c2ccc(O)cc2)N(Cc2ccco2)C(=O)c2snc(C(N)=O)c2N)cc1 (stereo not given)	-1	13	-1	-14	-5	i	9	8
COc1ccc(CN2CCNC(=O)C2CC(=O)N2CCCO2)c(OC)c1 (stereo not given)	-3	-2	1	-1	0	i	7	.
COc1ccccc1CNS(=O)(=O)c1ccc2c(c1)NC(=O)CO2	14	.	10	-2	3	i	0	-11
COc1ccc2cc(CO)n(C)c2c1	.	-8	.	-3	-1	.	-5	-7
C=CCNc1nc(N)c([N+](=O)[O-])c(Nc2cccc(Cl)c2)n1	0	6	2	-2	-1	i	15	-13
O=C(Cn1c(C(=O)N2CCN(C3CCCC3)CC2)cc2sccc21)c1ccccc1	0	-11	2	0	2	i	.	17
Cc1cc(C)nc(SCC(=O)N/N=C/c2ccc3c(c2)OCO3)n1	-5	-11	-7	1	5	i	2	-3
COc1ccc(Cc2nnc(NC(=O)C3CC(=O)N(c4ccccc4C)C3)s2)cc1OC (stereo not given)	.	-16	.	3	3	i	3	5
CCC(C#CCN1CCCCC1)(CC)OCCC#N	-3	-15	-1	5	7	.	.	-12
Cc1ccc(NC(=O)CN(C)CC(=O)Nc2ccc(N3CCOCC3)cc2)cc1F	10	6	-1	1	-4	i	-6	.
O=C(NCc1cc(Cl)cc(Cl)c1)c1ccc2nc([C@@H]3O[C@H](CO)[C@H](O)[C@H](O)[C@H]3O)[nH]c2c1	.	.	.	2	4	.	-8	-22
CN1CCN(CCC(=O)N/N=C/c2ccccc2F)CC1	18	2	10	-4	3	i	-11	-18
COc1ccc(NC(=O)C(c2cc3c(cc2[N+](=O)[O-])OCO3)N(C)c2ccccc2)cc1 (stereo not given)	-16	3	18	-3	-2	i	-6	.
Cc1cc(/C=C2\SC(=Nc3ccc(N4CCOCC4)cc3)N(C)C2=O)c(C)n1-c1cccnc1	1	12	2	-10	-9	i	.	.
Cc1cccc(NCc2cccc3ccccc23)n1	-5	9	-8	2	-1	i	-23	-8
CCN(CC)c1ccc2cc(-c3nnc(-c4ccncc4)o3)c(=O)oc2c1	?	.	?	-291	0	.	-35	-24
Cc1nnc(SCC(=O)Nc2nc(-c3ccccc3)cs2)n1N	19	-2	5	1	1	i	.	.
Cc1ccc(OCCn2cncn2)c([N+](=O)[O-])c1	6	-18	3	1	3	i	-7	-14
C[C@H](NC(=O)c1cc2cc(Cl)ccc2n1C)C(=O)N1CCC(C(=O)O)CC1	-6	2	-3	-1	0	i	11	-8
CCOC(=O)N1CCC(N(CCN(C)C)C(=S)Nc2ccc(F)c(Cl)c2)CC1	-8	5	-12	2	2	i	8	.
O=C(Nc1cccc(C(F)(F)F)c1)c1cccc(NS(=O)(=O)c2ccc(O)c(C(=O)O)c2)c1	-2	-6	-1	-6	1	i	9	2

# Further records:
SMILES	PABP polyA inh	CSC inhib	eIF4H inh	MT1-MMP act inh	MT1-MMP act inh RFP	Rce1 inh	HIV Env fusion	UUG fidelity
CCN(C[C@H]1N[C@@](C)(C(=O)OC)[C@H]2C(=O)N(Cc3ccccc3)C(=O)[C@@H]12)S(=O)(=O)c1ccc(OC)cc1	.	.	.	5	13	.	?	-3
Cc1sc2nc(COC(=O)c3cccc(S(=O)(=O)N(C)c4ccccc4)c3)[nH]c(=O)c2c1C	?	2	?	-31	0	i	-12	-11
CCCS(=O)(=O)NC(=O)C1(C)CCCN(C(=O)c2cc(F)ccc2C)C1 (stereo not given)	.	.	.	-2	4	.	3	-38
CCC(=O)Nc1cccc(NC(C)=O)c1	10	.	48	.	.	i	.	.
Cc1cc(Cl)ccc1NC(=O)CN1CCC(C(O)(c2ccccc2)c2ccccc2)CC1	6	46	11	-21	-14	i	.	-8
CC1CCCC(NC(=O)CN2C(=O)NC(C)(c3ccccc3)C2=O)C1C (stereo not given)	.	.	.	3	0	.	-7	-14
CCCCC(=O)Nc1ccc(C(=O)N2CCC(C(=O)OCC)CC2)cc1	9	-10	4	3	5	i	-17	1
O=C(Nc1ccc(N2CCCCC2)c(Cl)c1)c1ccc(N2CCOCC2)c([N+](=O)[O-])c1	6	51	-2	-4	-21	i	.	.
COc1ccc(N2CCN(C(=O)c3cc4c(s3)-c3ccccc3OC4)CC2)cc1	-4	-8	0	-4	-19	i	-16	-8
O=C(Cc1ccccc1)NNC(=O)C1CCCC1	-2	6	14	-3	4	i	1	.
CC(C)(C)C(=O)NC1CCN(S(=O)(=O)c2ccc(C(F)(F)F)cc2)CC1	20	17	1	-1	1	i	.	-14
O=C(Nn1cnnc1)c1ccccc1F	4	-19	-8	1	3	i	7	-16
CSCCCNC(=O)c1ccccc1OC1CCN(S(C)(=O)=O)CC1	8	-9	3	-1	1	i	-2	-12
CCN(c1ccccc1)S(=O)(=O)c1ccc(Cl)c(NC(=O)CSc2nncs2)c1	43	.	10	-3	-2	i	6	-10
CCOC(=O)C(CC)(CC)C(=O)/C=C/c1cccc(Br)c1	.	-7	.	-13	-18	i	.	-5
C=C(C)Cn1c(N2CCN(c3ccc(OC)cc3)CC2)nc2c1c(=O)n(C)c(=O)n2C	-3	-10	5	-7	-22	i	32	.
CC(=O)Nc1ccc(NC(=O)C2CCCN(S(=O)(=O)c3ccc(-n4cnnn4)cc3)C2)cc1 (stereo not given)	-1	-10	-12	-6	2	i	-11	-19
O=C(c1ccoc1)N1CCC2(CC1)Oc1ccc(Cl)cc1C(=O)C21CC(c2ccccc2)=NO1 (stereo not given)	2	7	-9	-3	-3	i	-165	-18
COCCN(C(=O)CC1C(=O)NCCN1Cc1ccc(-c2ccccc2)cc1)C(C)C (stereo not given)	3	1	13	1	1	i	14	.
Nc1cccc(C(=O)NCCNC(=O)c2cccc(N)c2)c1	-4	0	-6	-4	1	i	-15	-15
Cc1nc(C(=O)Nc2ccccc2)sc1C1(C)CC(c2cccnc2)=NO1 (stereo not given)	-1	-1	5	2	-4	i	-20	-8
O=C(CSc1nnc(-c2c[nH]c3ccccc23)o1)N1CCCCC1	5	-10	-8	-3	-2	i	.	-7
Cc1c([N+](=O)[O-])c([N+](=O)[O-])nn1CC(=O)NCc1cccnc1	13	-2	-3	1	0	i	-12	.
CN1C(=O)NC(NC(=O)C2CCCCC2)(C(F)(F)F)C1=O (stereo not given)	-2	4	-9	-1	1	i	.	.
O=c1oc2ccccc2cc1-c1nc(-c2cccs2)cs1	21	-3	21	-3	5	.	-106	-15
Fc1ccccc1N1CCN(CCCNc2ccc3nncn3n2)CC1	-1	4	2	2	2	i	3	-5
Cc1ccc(C2N(c3ccc(F)cc3)C(=O)C3CCCN32)cc1 (stereo not given)	-8	2	-10	2	5	i	-19	1
COc1cc(C(=O)NNC(=O)C2CC2)cc(OC)c1OC	3	-10	1	-2	3	i	2	-6
O=C(O)c1cc(-c2ccc(Cl)cc2)n(-c2ccccc2)n1	-3	-15	-2	-3	2	i	4	.

# Source: PubChem BioAssay
